H5N1 antiviral – MDCK cell protection from H5N1 avian flu; cytopathic effect, luminescence, 72 h; stronger effect = higher value; no value below 0 was filed and about half of the inactive calls have no number; reference of the scale not given here; inhibition, % at 50 µM; 96,000 compounds, 0.07% hits; AID 740, 2007; in the data active = inhibition above about 25%
Numbers without * were called inactive. This is a subset (hit frequency here may not be typical).

O=C1Nc2ccccc2C(O)(C(=O)NCc2ccco2)N1c1ccccc1 (stereo unspecified) was read as H5N1 antiviral 0.6.
`Cc1ccc(NC(=O)C(C)N2C(=O)C3C4CC(C(Br)C4Br)C3C2=O)cc1` (stereo unspecified) gave H5N1 antiviral 4.5.
For CCCSc1nc(N2CCOCC2)c2c(c1C#N)CCCC2 the results were H5N1 antiviral 1.8.
`O=C(NNC(=O)c1ccccc1Br)c1ccc(Cl)c(Cl)c1` gave H5N1 antiviral 0.7.
Cc1csc(NC(=O)CSc2nc(C)cs2)n1 was read as H5N1 antiviral 3.1.
For O=C(Cc1coc(-c2ccc(F)cc2)n1)N1CCOCC1 the results were H5N1 antiviral 0.5.
Screening COc1ccc(C(O)C(CN2CCOCC2)c2ccccc2)cc1 (stereo unspecified) returned H5N1 antiviral 1.7.
`Cc1cccc(CSCCNC(=O)CSCc2ccc([N+](=O)[O-])cc2)c1` gave H5N1 antiviral inactive.
Screening O=C(NC1CCCC1)C1CC1c1ccccc1 (stereo unspecified) returned H5N1 antiviral inactive.
`OC(COc1ccc(Cl)cc1)CN1C2=NCCCN2c2ccccc21` (stereo unspecified) gave H5N1 antiviral inactive.
`CCc1ccccc1NC(=O)CSc1nnc([C@@H](N)Cc2ccccc2)o1` gave H5N1 antiviral inactive.
`O=C(Cn1nnc2ccccc21)NCc1ccccc1` gave H5N1 antiviral 0.8.
`Cc1cccc(N2CCCC2=Nc2ccc(Br)cc2C#N)c1` gave H5N1 antiviral inactive.
For CCOC(=O)c1nn(-c2ccc(C)cc2)cc1O the results were H5N1 antiviral inactive.
Screening CCOC(=O)CN(C(=O)CNC(=O)c1cccs1)C(C(=O)NC1CCCC1)c1cccnc1 (stereo unspecified) returned H5N1 antiviral 0.1.
`CCOC(=O)C1CCCN(C(=O)c2cc3c(=O)n(C)c4ccccc4c3n2C)C1` (stereo unspecified) gave H5N1 antiviral 1.6.
For COc1ccc(NC(=O)C(CCSC)N2C(=O)c3ccccc3C2=O)cc1 (stereo unspecified) the results were H5N1 antiviral 1.2.
`O=C(NC(=S)Nc1nc2c(s1)CSc1ccccc1-2)c1ccccc1` gave H5N1 antiviral inactive.
COc1ccccc1NC(=O)NS(=O)(=O)c1ccc(C)cc1 was read as H5N1 antiviral inactive.
CCOc1ccc(C(=O)N2CCN(Cc3ccccc3)CC2)cc1 was read as H5N1 antiviral 0.4.
`C=CC(=O)NC(NC(=O)C=C)c1ccc(Br)cc1` gave H5N1 antiviral 0.5.
Screening O=C(N(Cc1ccccc1)c1ccccn1)C12CC3CC(CC(C3)C1)C2 returned H5N1 antiviral 2.3.
Screening COc1cc(-c2nc(Cc3ccccc3Cl)no2)cc(OC)c1OC returned H5N1 antiviral 1.1.
`COCCSc1ccccc1C(=O)Nc1nnc(COC)s1` gave H5N1 antiviral inactive.

For reference, 15 of the compounds above:
Screening COc1ccc(C(O)C(CN2CCOCC2)c2ccccc2)cc1 (stereo unspecified) returned H5N1 antiviral 1.7.
`Cc1cccc(CSCCNC(=O)CSCc2ccc([N+](=O)[O-])cc2)c1` gave H5N1 antiviral inactive.
Screening O=C(NC1CCCC1)C1CC1c1ccccc1 (stereo unspecified) returned H5N1 antiviral inactive.
`OC(COc1ccc(Cl)cc1)CN1C2=NCCCN2c2ccccc21` (stereo unspecified) gave H5N1 antiviral inactive.
`CCc1ccccc1NC(=O)CSc1nnc([C@@H](N)Cc2ccccc2)o1` gave H5N1 antiviral inactive.
`O=C(Cn1nnc2ccccc21)NCc1ccccc1` gave H5N1 antiviral 0.8.
`Cc1cccc(N2CCCC2=Nc2ccc(Br)cc2C#N)c1` gave H5N1 antiviral inactive.
For CCOC(=O)c1nn(-c2ccc(C)cc2)cc1O the results were H5N1 antiviral inactive.
Screening CCOC(=O)CN(C(=O)CNC(=O)c1cccs1)C(C(=O)NC1CCCC1)c1cccnc1 (stereo unspecified) returned H5N1 antiviral 0.1.
`CCOC(=O)C1CCCN(C(=O)c2cc3c(=O)n(C)c4ccccc4c3n2C)C1` (stereo unspecified) gave H5N1 antiviral 1.6.
For COc1ccc(NC(=O)C(CCSC)N2C(=O)c3ccccc3C2=O)cc1 (stereo unspecified) the results were H5N1 antiviral 1.2.
`O=C(NC(=S)Nc1nc2c(s1)CSc1ccccc1-2)c1ccccc1` gave H5N1 antiviral inactive.
COc1ccccc1NC(=O)NS(=O)(=O)c1ccc(C)cc1 was read as H5N1 antiviral inactive.
CCOc1ccc(C(=O)N2CCN(Cc3ccccc3)CC2)cc1 was read as H5N1 antiviral 0.4.
`C=CC(=O)NC(NC(=O)C=C)c1ccc(Br)cc1` gave H5N1 antiviral 0.5.

Remaining list, next part
Screening Fc1ccccc1OCCCN1CCOCC1 returned H5N1 antiviral inactive.
Screening C=CCn1c(SCC(=O)NC(=O)NCCC)nnc1C1CCCCC1 returned H5N1 antiviral 0.6.
Screening Cc1ccccc1-c1cc2c(nn1)-c1ccccc1C2=O returned H5N1 antiviral inactive.
For Cc1cccc(NC(=S)N2CCC(c3nc4ccccc4o3)CC2)c1C the results were H5N1 antiviral 0.3.
COC(=O)Cn1cnc2c(C#N)c3n(c2c1=O)CCCCC3 was read as H5N1 antiviral 2.2.
For CC(=O)NCCOC(=O)Nc1ccncc1 the results were H5N1 antiviral 1.2.
For Cc1ccc(C)c(S(=O)(=O)N/N=C2/CCCc3ccccc32)c1 the results were H5N1 antiviral 5.0.
`CCn1c(COc2ccccc2)nnc1SCC(=O)NC1CCCCC1` gave H5N1 antiviral 0.1.
COC(=O)c1ccc(OC(=O)c2ccc(OC)c(OC)c2)c(OC)c1 was read as H5N1 antiviral inactive.
For CC(=O)c1c(C)[nH]c(C(=O)Nc2cc(C)ccc2C)c1C the results were H5N1 antiviral 0.8.
For COc1ccccc1C(=O)Nc1ccc(CN2CCCCC2)cc1 the results were H5N1 antiviral inactive.
O=C(Nc1ccccc1N1CCN(C(=O)c2ccc(Cl)cc2)CC1)c1ccc(Br)cc1 was read as H5N1 antiviral 0.2.
Screening CC(=O)c1cccc(Nc2nc(=O)c3cccnc3s2)c1 returned H5N1 antiviral 0.4.
COc1cc2c(cc1NC(=O)C(C)N1CCN(S(=O)(=O)c3ccc(C)c(C)c3)CC1)oc1ccccc12 (stereo unspecified) was read as H5N1 antiviral 2.1.
CCn1nc(NC(=O)c2ccco2)c2cc3ccccc3nc21 was read as H5N1 antiviral inactive.
CS(=O)(=O)c1ccc(Cl)c(S(=O)(=O)NCc2ccccc2)c1 was read as H5N1 antiviral inactive.
CCC(=O)N1CCc2cc(S(=O)(=O)CCC(=O)Nc3nc(C)cs3)ccc21 was read as H5N1 antiviral inactive.
For CCC1(C)Cc2ccccc2C(Nc2c(C)n(C)n(-c3ccccc3)c2=O)=N1 (stereo unspecified) the results were H5N1 antiviral inactive.
Cc1c(NC(=O)C(C)c2ccc(CC(C)C)cc2)c(=O)n(-c2ccccc2)n1C (stereo unspecified) was read as H5N1 antiviral inactive.
For O=C(NCCCN1CCCC1)c1ccc(CS(=O)(=O)c2ccc(Br)cc2)o1 the results were H5N1 antiviral inactive.
For O=C(Nc1ccc(S(=O)(=O)N2CCN(Cc3ccccc3)CC2)cc1)c1cnccn1 the results were H5N1 antiviral 2.4.
For O=C(N1CCOCC1)N1CCN(c2ccccc2F)CC1 the results were H5N1 antiviral 0.6.
`COCCCN1CCN(c2nnc3n2-c2sc(Br)cc2C(c2ccccc2Cl)=NC3)CC1` gave H5N1 antiviral 1.2.
Screening CSCCc1nc(SCC(=O)Nc2nnc(C)s2)[nH]c1C returned H5N1 antiviral inactive.
CC1CCCN(C(=O)Cc2ccc(F)cc2)C1 (stereo unspecified) was read as H5N1 antiviral 1.3.
`CNc1sc(C(=O)c2ccccc2F)c(N)c1-c1nc2ccccc2s1` gave H5N1 antiviral inactive.
For CC(O)CN1C(=O)C(CC(=O)Nc2ccc(Cl)cc2)SC1=Nc1ccccc1 (stereo unspecified) the results were H5N1 antiviral 4.0.
CCOc1cc([C@H]2[C@@H]3CCCC[C@]3(O)CCN2CC(=O)NCc2ccco2)ccc1O was read as H5N1 antiviral 0.7.
Cc1ccccc1-c1ccc(Nc2ccc(C(=O)N3CCOCC3)cc2)nn1 was read as H5N1 antiviral 0.4.
`Cc1cccc(C)c1NC(=O)CSc1nnc(CCCCCNC(=O)OC(C)(C)C)o1` gave H5N1 antiviral inactive.
O=C(CCn1cccc1)Nc1ccccc1F was read as H5N1 antiviral 0.1.
`COC(=O)Nc1sc(C(=O)N(C)C)c(C)c1C(=O)OC` gave H5N1 antiviral inactive.
`COc1ccc(-c2nc3ccccc3c(=O)n2-c2cccnc2)cc1` gave H5N1 antiviral 2.6.
Cc1cccc(OCCSc2nnc(-c3ccoc3C)n2C)c1 was read as H5N1 antiviral inactive.
For COc1ccccc1C(=O)Nc1cc2c(ccc3ccccc32)oc1=O the results were H5N1 antiviral inactive.
`CCn1c(CNC(=O)c2cccc(C)c2)nnc1SCC(=O)Nc1cccc(OC)c1` gave H5N1 antiviral inactive.
`Cc1ccc(-n2c(-c3ccco3)nc3c(cnn3-c3ccc(C)cc3)c2=O)cc1` gave H5N1 antiviral 0.7.
`CCCCC(=O)Nc1ccc2c3c(cccc13)C(=O)N2CC` gave H5N1 antiviral inactive.
NC(=O)C1CCN(CCC(=O)Nc2cccc(Cl)c2)CC1 was read as H5N1 antiviral inactive.
`O=C(c1ccco1)N1CCN(C(=O)c2cc3sccc3n2Cc2ccccc2)CC1` gave H5N1 antiviral 1.0.
Screening Cc1cc(C)c2cc(CN(CCO)C(c3nnnn3Cc3ccc(F)cc3)C(C)C)c(=O)[nH]c2c1 (stereo unspecified) returned H5N1 antiviral 4.1.
COc1ccc2nc(NC(=O)C3CCN(S(=O)(=O)c4cccc5nsnc45)CC3)sc2c1 was read as H5N1 antiviral inactive.
Screening N#CC1=C(N)S[C@H](C(=O)C23CC4CC(CC(C4)C2)C3)[C@H]1c1ccncc1 returned H5N1 antiviral 0.3.
`COc1ccc2nc3oc(C(=O)N4CCN(c5cccc(C(F)(F)F)c5)CC4)cc3cc2c1` gave H5N1 antiviral inactive.
C=CCNc1nc(NCCN2CCOCC2)nc(OC)n1 was read as H5N1 antiviral inactive.
CCOC(=O)c1ccc2c(c1)n(CC)c(/C=C/Nc1ccccc1)[n+]2CC was read as H5N1 antiviral inactive.
Screening Cc1cc(NC(=O)CSc2nnc(C)c(=O)[nH]2)no1 returned H5N1 antiviral 0.2.
For O=C(CC1CCCC1)OCn1nnc2ccccc2c1=O the results were H5N1 antiviral inactive.
CCO/C=C1\C(=O)N(c2ccccc2)C(=O)c2ccccc21 was read as H5N1 antiviral 0.3.
`O=C(N/N=C/c1ccc(O)c(O)c1O)/C(=C/c1ccc([N+](=O)[O-])cc1)NC(=O)c1ccccc1` gave H5N1 antiviral 0.7.
O=c1[nH]c(N2CCOCC2)nc2ncn(Cc3ccccc3)c12 was read as H5N1 antiviral inactive.
`COc1cccc(CNC(=O)C2CCN(S(=O)(=O)c3c(C)nn(C)c3C)CC2)c1` gave H5N1 antiviral inactive.
`COc1ccccc1N1CCN(C(=O)c2cc(-c3ccc(C)cc3)on2)CC1` gave H5N1 antiviral 0.5.
Screening CSc1nnc(-c2nnc(SC)n2-c2ccccc2)n1-c1ccccc1 returned H5N1 antiviral inactive.
For CC(=O)c1cccc(NC(=O)Nc2cnn(Cc3ccc(Cl)cc3Cl)c2)c1 the results were H5N1 antiviral inactive.
Screening COc1ccc(CCn2c(=O)[nH]c3cc(C(=O)NCCc4ccccc4)ccc3c2=O)cc1OC returned H5N1 antiviral inactive.
CC(C)(C)SCCNC(=O)c1ccc(NS(C)(=O)=O)cc1 was read as H5N1 antiviral inactive.
Screening COc1ccc(CNC(=O)c2cc(-n3cnnc3)ccc2Cl)cc1 returned H5N1 antiviral 0.1.
COC(=O)c1ccccc1NC(=O)CS(=O)(=O)Cc1nc(-c2ccc(C)cc2)oc1C was read as H5N1 antiviral 1.3.
Cc1ccc(/C=C/C2=NN(Cc3ccccc3)C(=O)CC2)cc1 was read as H5N1 antiviral inactive.
Screening O=C(C1CCCN(S(=O)(=O)c2cccc3nsnc23)C1)N1CCc2ccccc2C1 (stereo unspecified) returned H5N1 antiviral inactive.
`O=C(NCC1CCCO1)[C@@H]1CSC2c3ccccc3C(=O)N21` (stereo partly specified) gave H5N1 antiviral 1.2.
Screening COc1cccc(C(=O)Nc2cccc(NC(C)=O)c2)c1 returned H5N1 antiviral inactive.
Cc1ccc(CNC(=O)CSc2nc3ccccc3c(=O)n2CCCO)cc1 was read as H5N1 antiviral 1.0.
For COc1ccc(CCNC(=O)Cc2cc(=O)[nH]c(=O)[nH]2)cc1OC the results were H5N1 antiviral 0.3.
For O=C(COc1ccc2ccccc2c1)NNC(=O)[C@@H]1CCCC[C@@H]1C(=O)O the results were H5N1 antiviral 1.9.
For CCCNS(=O)(=O)c1ccc(OCC(=O)N2CCN(Cc3ccccc3)CC2)cc1 the results were H5N1 antiviral 0.7.
`O=C(c1nc2nc(-c3ccccc3)cc(C(F)(F)F)n2n1)N1CCOCC1` gave H5N1 antiviral inactive.
`COc1cccc(NC(=O)Nc2nnc(-c3ccccc3SCc3ccccc3)s2)c1` gave H5N1 antiviral inactive.
For Fc1ccccc1N1CCN(Cc2nc(-c3ccc(Cl)cc3Cl)no2)CC1 the results were H5N1 antiviral 0.7.
For CCCCn1c(SCC(=O)Nc2nnc(C)s2)nnc1-c1ccoc1C the results were H5N1 antiviral inactive.
For OCCNc1cc(-n2nc(-c3ccccc3)cc2-c2ccccc2)ncn1 the results were H5N1 antiviral 0.3.
For CCN(Cc1cc2ccccc2[nH]c1=O)C(=O)C1CCCCC1 the results were H5N1 antiviral inactive.
For CCOc1ccc(C(C)NC(=O)Nc2ccccc2C(=O)OC)cc1 (stereo unspecified) the results were H5N1 antiviral inactive.
`CCNS(=O)(=O)c1ccc(S(=O)(=O)N(Cc2ccccn2)C2CCCCC2)cc1` gave H5N1 antiviral inactive.
CCn1ncc(C2=NOC(C(=O)Nc3c(C)nn(Cc4ccc(F)cc4)c3C)C2)c1C (stereo unspecified) was read as H5N1 antiviral 0.3.
`COCCNC(=O)c1ccccc1NC(=O)c1ccccc1N(C)S(=O)(=O)c1ccc(C)cc1` gave H5N1 antiviral inactive.
`O=C(C1CCCN(S(=O)(=O)c2cccs2)C1)N1CCc2ccccc2C1` (stereo unspecified) gave H5N1 antiviral 0.6.
Screening CC(C)OCCCNS(=O)(=O)c1ccc2c(c1)oc(=O)n2C returned H5N1 antiviral 0.3.

Bioassay records deposited in PubChem BioAssay by SRMLSC.
